VACV Venus inh = inhibitors of vaccinia virus (Venus reporter). Potency, µM (doses to about 36.5 µM), without a hit: top-dose activity change, negative = inhibition, actives largely listed as inhibitors. Vaccinia virus Venus reporter expression, fluorescence. 330,000 compounds, 0.46% hits. AID 720580; active means well fitted inhibition curve with a large enough effect; inconclusive means small, poorly fitted or top-dose-only effect; inactive means no such curve, though single readings can be large or run the other way; tested in A549 cells; further: nearly all actives have a fitted effect of over 30% in size; inactives centre near -10
VACV mCherry inh = inhibitors of vaccinia virus infection (mCherry reporter signal); 310,000 compounds, 0.63% hits; AID 720579; Potency, µM (series often up to 36.5 µM), without a hit: at the highest dose activity change, negative = inhibition, most hits filed as inhibitors; Vaccinia virus mCherry reporter infection, fluorescence; about a quarter of the inactives have no number; active = well fitted inhibition curve with a large enough effect; inconclusive = small, poorly fitted or top-dose-only effect; inactive = no such curve, though single readings can be large or run the other way; tested in A549 cells; further: nearly all actives have a fitted effect of over 35% in size; inactives centre near -10
* = called active by the depositor; i = inactive; ? = inconclusive; nt = no result given; [ ] = remark or other dose. On the % scale 0 is the no-effect control and ±100 the full control effect; potency means the concentration at half of the fitted maximal effect.

SMILES	VACV Venus inh	VACV mCherry inh
COc1ccccc1NC(=S)NCC1CCCO1 (configuration not stated)	-9%	i
Cc1cccc(C2C=C(c3ccc(C)c(C)c3)Nc3nnnn32)c1 (configuration not stated)	-24%	-26%
Cc1cc(NCCNC2=CC(=O)CCC2)nc2ccccc12	-2%	-4%
CC(C)NS(=O)(=O)c1ccc(OCC(N)=O)c(Cl)c1	-3%	nt
Cc1ccc(C)c(OCc2cc(C(=O)NC(C)c3cnn(C)c3)no2)c1 (configuration not stated)	-22%	-22%
CCC(=O)NC(C)c1nc2ccccc2n1C (configuration not stated)	-3%	-8%
Cc1ccc(OCc2nc(C#N)c(NCc3ccc4c(c3)OCO4)o2)cc1	-17%	-27%
COc1ccc(C(=O)NCc2nnnn2-c2ccc(C)c(C)c2)cc1	-9%[7.34 µM]	-17%[7.34 µM]
CSc1cccc(NS(=O)(=O)c2cccs2)c1	-7%	-9%
COc1ccccc1CCC(=O)OCC(=O)Nc1cccc(S(=O)(=O)N2CCOCC2)c1	-8%	-9%
Cc1ccc(C)c(S(=O)(=O)N2CCCOC2CNC(=O)C(=O)NCc2ccccn2)c1 (configuration not stated)	-9%	-11%
Cc1cccc(NS(=O)(=O)c2ccc3c(c2)OCC(C(=O)N2CCCC2)O3)c1C (configuration not stated)	-18%	-4%

Next part; it opens with the four that closed the last part.
SMILES	VACV Venus inh	VACV mCherry inh
CSc1cccc(NS(=O)(=O)c2cccs2)c1	-7%	-9%
COc1ccccc1CCC(=O)OCC(=O)Nc1cccc(S(=O)(=O)N2CCOCC2)c1	-8%	-9%
Cc1ccc(C)c(S(=O)(=O)N2CCCOC2CNC(=O)C(=O)NCc2ccccn2)c1 (configuration not stated)	-9%	-11%
Cc1cccc(NS(=O)(=O)c2ccc3c(c2)OCC(C(=O)N2CCCC2)O3)c1C (configuration not stated)	-18%	-4%
O=C(NCc1ccc(F)cc1)Nc1nnc([C@H]2C[C@H](O)[C@@H](CO)O2)s1	-4%	48%[activator]
COc1ccc(CN2CCC(n3cc(C(=O)N4CCCCC4)nn3)CC2)c(OC)c1	-9%	-12%
CN1CCN(c2nc(-c3cccc(C#N)c3)nc3ccccc23)CC1	0%	17%
O=C(c1ccc(CS(=O)(=O)Cc2ccccc2)cc1)N1CCCCC1	-6%	-11%
COc1cccc(C(c2nnnn2-c2c(C)cccc2C)N2CCC(n3c(=O)[nH]c4ccccc43)CC2)c1OC (configuration not stated)	-21%	-6%
NS(=O)(=O)c1ccc2nc(NC(=O)C3CCCO3)sc2c1 (configuration not stated)	-6%	i
COc1ccc(CNC(=O)CCC(=O)Nc2nnc(CC(C)C)s2)cc1	-6%[7.34 µM]	i[7.34 µM]
COc1ccccc1-c1nnc(SCC(=O)NCc2ccco2)n1N	-1%	0%
COc1ccc(C(=O)NCC(c2ccc3c(c2)OCO3)N2CCN(c3ccc(OC)cc3)CC2)cc1 (configuration not stated)	-18%	-23%
CCOc1ccccc1NC1=C(Cl)C(=O)N(c2ccccc2)C1=O	-10%	i
O=C(Oc1ccccc1C(=S)N1CCOCC1)c1cccc([N+](=O)[O-])c1	-10%	i
Cc1cc(Cl)ccc1OCC(=O)NCCOc1nc(N2CCOCC2)nc(N2CCOCC2)n1	-12%	i
CC(C)OC(=O)/C(C#N)=C/c1cn(Cc2ccccc2)c2ccccc12	-4%	-1%
O=C(NCc1ccccc1CN1CCCC1)c1ccc(S(=O)(=O)Nc2ccccc2)cc1	-28%	-17%
COc1ccc(-c2oc3ccc(-c4ccc(OC)nc4)cc3c2C#CC2(O)CCCCC2)cc1	-26%	i
COC(C[C@@H]1O[C@H]1[C@H](O)COCc1ccccc1)OC	-4%	-15%
COC(=O)C1=CO[C@@H](O[C@@H]2O[C@H](CO)[C@@H](O)[C@H](O)[C@H]2O)C2C1CC(O)O[C@H]2C (some centres not stated)	-2%	-7%
CS(=O)(=O)N1Cc2cc(C(=O)NCC3CC3)nc(-c3cccc(-c4cccnc4)c3)c2[C@H]1CCO	-5%	i
CCn1c(SCc2ccc(OC)cc2)nnc1-c1ccncc1	-16%	-26%
COc1cc2cnc(-c3ccccc3)c(-c3ccc([N+](=O)[O-])cc3)c2cc1OC	-20%	-5%
Cc1ccc(CSc2nnc3nc(C)cc(C)n23)cc1	23%	nt
S=C(NCCCc1cnc[nH]1)NCCCN(Cc1ccc(Cl)cc1)c1ccc(Br)cc1	?	?
O=C1Nc2ccc(F)cc2C12OCCO2	5%	-21%
Cc1ccc(OCC(=O)NCC(=O)Nc2ccc(F)c(F)c2F)c([N+](=O)[O-])n1	-19%	-26%
COc1ccc(C(C)NC(=O)C23CC4CC(CC(C4)C2)C3)cc1 (configuration not stated)	-10%	i
COc1cc(Br)c(CC(=O)NNC(=O)c2ccc(F)cc2)cc1OC	-4%	-11%
CCOc1ccc(NC(=O)CN(C)C(=O)c2ccc(C)o2)cc1OCC	-3%	-10%
O=C(COC(=O)c1cc(Cl)ccc1O)NNC(=O)c1ccccc1F	-7%	i
O=C(Cc1cc(=O)[nH]c(=O)[nH]1)NCc1ccccc1	-5%	12%
COCC(C)n1c(C)cc(C(=O)COC(=O)CN=C2NS(=O)(=O)c3ccccc32)c1C (configuration not stated)	8%	i
O=C(NCc1cccs1)C1CC(=O)N(C2CCCC2)C1 (configuration not stated)	-1%	-16%
CCN(CC)C(=O)CSc1nsc(SCC(=O)N(CC)CC)c1C#N	2%	-8%
O=c1c2[nH]c3cccc(Cl)c3c2ncn1Cc1ccncc1	?	-13%
Cc1cc(OCC(=O)N2C[C@H]3C[C@@H](C2)c2cccc(=O)n2C3)c2c(C)cc(=O)oc2c1	-2%	i
O=C(Cc1ccccc1)NN=Cc1ccccc1	0%	i
CCC(=O)c1ccc(N2CCN(C(=O)c3cccc(F)c3)CC2)c(F)c1	-13%	-2%
COc1ccc(CCNC(=O)c2cc(S(=O)(=O)N(C)C)ccc2N2CCCC2)cc1	-16%	-7%
CCCCCC(=O)Cc1cc(O)cc(O)c1C(=O)Oc1cc(CC(=O)CCCCC)c(C(=O)O)c(OC)c1	0%	i
CC1CCCCC1NC(=O)COc1ccc(-n2cnnn2)cc1 (configuration not stated)	-5%	nt
COC(=O)c1c(C(=O)OC)c(-c2ccc(C)cc2)n2c1CS(=O)C2 (configuration not stated)	-9%	nt
COC(=O)C1=C(c2cc3ccccc3s2)C[C@@H]2CC[C@H]1N2C(=O)N1CCCC1	?	-20%
Clc1ccc(CN2CCN(/N=C/c3cccnc3)CC2)cc1	-3%	0%
CCOc1ccc(S(=O)(=O)NCCC(=O)NC2CCCCC2)cc1	-20%	0%
COC(=O)c1sccc1NC(=O)c1ccc(C)cc1	-18%	-4%
CCN1CCN(c2sc(S(=O)(=O)CC)nc2S(=O)(=O)c2ccc(Cl)cc2)CC1	-21%	-19%
COc1ccc(S(=O)(=O)Nc2cc(S(=O)(=O)c3ccccc3)c(O)c(C)c2C)cc1	-4%	12%
O=C(Nc1ccncc1)Nc1ccc(F)cc1F	-12%	-17%
CCC(C)NC(=O)c1n[nH]c(=O)c2ccccc12 (configuration not stated)	-7%	-7%

By substructure: those above with a Cl atom
SMILES	VACV Venus inh	VACV mCherry inh
CC(C)NS(=O)(=O)c1ccc(OCC(N)=O)c(Cl)c1	-3%	nt
CCOc1ccccc1NC1=C(Cl)C(=O)N(c2ccccc2)C1=O	-10%	i
Cc1cc(Cl)ccc1OCC(=O)NCCOc1nc(N2CCOCC2)nc(N2CCOCC2)n1	-12%	i
S=C(NCCCc1cnc[nH]1)NCCCN(Cc1ccc(Cl)cc1)c1ccc(Br)cc1	?	?
O=C(COC(=O)c1cc(Cl)ccc1O)NNC(=O)c1ccccc1F	-7%	i
O=c1c2[nH]c3cccc(Cl)c3c2ncn1Cc1ccncc1	?	-13%
Clc1ccc(CN2CCN(/N=C/c3cccnc3)CC2)cc1	-3%	0%
CCN1CCN(c2sc(S(=O)(=O)CC)nc2S(=O)(=O)c2ccc(Cl)cc2)CC1	-21%	-19%

(more compounds)
SMILES	VACV Venus inh	VACV mCherry inh
Cc1cccc(NC(=O)NCC(c2cccnc2)N2CCOCC2)c1 (configuration not stated)	5%	-7%
O=C(Nn1c(=S)[nH]c2ccccc2c1=O)c1ccncc1	-14%	i
Cc1ccnc(NS(=O)(=O)c2ccc(NC(=O)c3ccc(S(=O)(=O)N4CCOCC4)cc3)cc2)n1	-12%	i
CC(C)C(C(=O)NCC1CCCO1)N(Cc1cccs1)C(=O)CNS(=O)(=O)c1ccccc1 (configuration not stated)	-4%	-4%
Cc1cc(NC(=O)c2csc([C@@H]3O[C@H](CO)[C@H](O)[C@H](O)[C@H]3O)n2)n(C)n1	0%	-5%
CCC1CCc2nc3sc(C(=O)Nc4ccc(C)cc4C)c(N)c3cc2C1 (configuration not stated)	0%	-8%
CN(C(=O)c1ccc(NC(=O)Cc2cccc(NC(=O)C3CCN(C(=O)CCc4ccccc4)CC3)c2)cc1)C1CCCC1	-20%	i
CC(C)NC(=O)c1ccc(-n2c(-c3ccccc3)cc3c2CCCC3)cc1	-19%	-10%
Cc1ccc(NC(=O)C2(C)CCN2C(=O)CCC2CCCC2)cc1C (configuration not stated)	-13%	i
Cc1ccc(S(=O)(=O)Oc2ccc(C3C4=C(CCCC4=O)OC4=C3C(=O)CCC4)cc2)cc1	-3%	-12%
CCN(CC)C(=O)c1nc[nH]c1C(=O)N1CCC(C)CC1	-9%	-12%
COc1ccc(NC(=O)/C(C#N)=C/c2cc(C)n(-c3ccc(F)cc3)c2C)cc1	-19%	17%

Of the compounds above, 3 have a furan ring, fused or not:
SMILES	VACV Venus inh	VACV mCherry inh
COc1ccccc1-c1nnc(SCC(=O)NCc2ccco2)n1N	-1%	0%
COc1ccc(-c2oc3ccc(-c4ccc(OC)nc4)cc3c2C#CC2(O)CCCCC2)cc1	-26%	i
CCOc1ccc(NC(=O)CN(C)C(=O)c2ccc(C)o2)cc1OCC	-3%	-10%

More structures follow:
SMILES	VACV Venus inh	VACV mCherry inh
CCCCC(c1nnnn1C1CCCC1)N1CCN(C(=O)c2ccco2)CC1 (configuration not stated)	-13%	nt
Cc1ccc(-c2n[nH]c3c2C(c2ccc(C(C)(C)C)cc2)NC3=O)cc1 (configuration not stated)	-9%	-3%
CC1(C)CC2CC(C)(CN2S(=O)(=O)c2cccc(N)c2)C1 (configuration not stated)	-14%	i
Cc1sc2ccccc2[n+]1CC(=O)O	3%	12%
COc1ccc(N(C(=O)c2snc(C(N)=O)c2N)C(C(=O)NCc2ccccc2)c2ccc(O)cc2)cc1 (configuration not stated)	-12%	-1%
O=C(Nc1ccc(NC(=O)c2ccccc2F)cn1)c1ccco1	-12%	-13%
NC12CN3CN(CN(C3)C1)C2 (tested in a mixture with another compound)	-11%	-16%
O=C(CNC(=O)c1ccccc1)Nc1cccc(C(F)(F)F)c1	-17%	-18%
COc1ccc(-c2cnc3c(NC(C)=O)cc(-c4cccc(NS(C)(=O)=O)c4)cn23)cc1OC	-9%	2%
CN(c1ccc([N+](=O)[O-])cc1C(N)=O)C1CCCCC1	-9%	-2%
CCN1CCCC1CNC(=O)CN1C(=O)COc2ccc(C)cc21 (configuration not stated)	-14%	-21%
C[C@@H](C(=O)NCc1ccccc1)N1C(=O)C2CC=CCC2C1=O (some centres not stated)	-13%	i
COc1cc(S(=O)(=O)N2CCN(c3ccccc3)CC2)ccc1F	-4%	-2%
S=C1CSc2ccccc2N1	-9%	-28%
Cc1ccsc1CCN1C(=O)N(c2ccccc2)C(=O)C1CC(=O)Nc1ccc(F)cc1 (configuration not stated)	-2%	-2%
Fc1ccc(-c2csc(=Nc3cccc(C(F)(F)F)c3)n2Cc2ccc3c(c2)OCO3)cc1	1%	-14%
CC(=O)c1c(C)[nH]c(C(=O)O)c1C	-1%	i
O=C(COc1cccc(-n2cnnn2)c1)Nc1ccccc1	-10%	-14%
C[C@@H]1CN([C@H](C)CO)C(=O)c2c(c3ccccc3n2C)-c2ccccc2CO[C@H]1CN(C)S(=O)(=O)c1cn(C)cn1	-3%	-6%
O=c1c2ccccc2sn1-c1ccccc1	-21%	i
CSc1nnc(CNC(=O)c2c(-c3ccccc3)noc2C)n1-c1ccc(F)cc1	-1%	-19%
COc1cccc(CNC(=O)Cn2ncn3nc(-c4cccs4)cc3c2=O)c1OC	-7%	-2%
Cc1cccc(-c2nc(C)c(CCNC(=O)C(=O)Nc3ccccc3C#N)s2)c1	-1%	-12%
CCOC(=O)Cc1csc(NC(=O)c2c(-c3c(Cl)cccc3Cl)noc2C)n1	-8%	-17%
O=C(N/N=C\c1ccc(COc2ccc([N+](=O)[O-])cc2)o1)c1ccc(Cl)cc1	-29%	-14%
Cc1cc(N2CCC(C)CC2)nc(-n2nc(C)cc2C)n1	-29%	nt
Nc1cc(-c2ccccc2)nn1Cc1ccccc1	-15%	i
CN(C)S(=O)(=O)c1ccc(C(=O)NCc2nnc(SCC(=O)N3CCCC3)o2)cc1	-7%	-15%
CCCc1cc(=O)[nH]c(SCc2csc(-c3ccccc3)n2)n1	-6%	-16%
COc1ccc(OC)c(C2C(C(=O)c3cc4ccccc4o3)=C(O)C(=O)N2c2cc(C)on2)c1 (configuration not stated)	6%	5%
COc1cc(C(=O)COC(=O)CNC(=O)C2CCCCC2)cc(OC)c1OC	1%	-7%
COCCn1c(=N)c(C(=O)NC2CCCC2)cc2c(=O)n3cc(C)ccc3nc21	-14%	-5%
